2A StopGo – FMDV 2A StopGo reporter, luciferase signal; human cells with a luciferase reporter of 2A StopGo recoding; control for the full effect not named in the record; Potency, µM (doses to about 57.9 µM), without a hit: at the highest dose signal change, negative = less light; actives 1.2% (n = 410,000); active = well fitted falling curve with a large enough effect; inconclusive = small, poorly fitted or top-dose-only effect; inactive = no such curve, though single readings can be large or run the other way; tested in HEK293T cells; further: on the % scale 0 is the no-effect control and ±100 the full control effect; nearly all actives have a fitted effect of over 45% in size; luciferase light after 4 h
RE007 growth inh – less growth of the S. pombe RE007 Vpr strain; S. pombe RE007 Vpr strain, BacTiter-Glo ATP luminescence, 24 h; control for the full effect not named in the record; Potency, µM (doses to about 92.2 µM), for inactives: top-dose activity change, negative = less growth; actives 0.21% (n = 360,000); AID 651644; active = well fitted falling curve with a large enough effect; inconclusive = small, poorly fitted or top-dose-only effect; inactive = no such curve, though single readings can be large or run the other way;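 further: on the % scale 0 is the no-effect control and ±100 the full control effect; nearly all actives have a fitted effect of over 50% in size; the assay follows cell death caused by Vpr and the record does not say whether a fall means rescue or toxicity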
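Fission yeast RE007 carrying one integrated HIV-1 vpr copy, seeded at OD 0.01 in PMG+AL medium with 23 nL pinned compound. Grown 24 h at 30 degrees; viability read by BacTiter-Glo luminescence after 5 min.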
SARS PLpro yeast – inhibitors of SARS-CoV papain-like protease in yeast. Potency, µM (doses to about 32.9 µM), for the others: top-dose activity, positive = growth rescue. S. cerevisiae expressing SARS-CoV PLpro, growth rescue; control for the full effect not named in the record. AID 485353. actives 0.19% (n = 330,000); active means well fitted rising curve with a large enough effect; inconclusive means small, poorly fitted or top-dose-only effect; inactive means no such curve, though single readings can be large or run the other way; further: 0% is about no effect; nearly all actives have a fitted effect of over 55% in size; growth read by luminescence after 48 h
Starred values were filed as active, the others as inactive; ? = inconclusive; [ ] = another dose, or the depositor's remark. Potency means the concentration at half of the fitted maximal effect.

SMILES	2A StopGo	RE007 growth inh	SARS PLpro yeast
CNC(=O)CC(CC(=O)c1ccccc1)c1ccccc1 (stereo not given)	3%	2%	2%
C[C@@H]1CN([C@@H](C)CO)C(=O)c2cc(NS(=O)(=O)c3ccc(Cl)cc3)ccc2O[C@H]1CN(C)Cc1ccncc1	3%	0%	-33%
COCc1c(C(=O)OCC(=O)NCCc2ccc(S(N)(=O)=O)cc2)oc2ccccc12	-14%	0%	-4%
O=C(NCc1ccccc1CN1CCCCC1)c1ccc(Cl)cc1N1CCCC1=O	-16%	-6%	3%
C=CC[C@H](CC(=O)OC(C)(C)C)C(=O)OC[C@@H]1CCCN1C(=O)[C@@H](CC=C)CC(=O)N[C@H](CO)Cc1ccccc1	-11%	-3%	-1%
COC(=O)C1=C(c2cccc(OCc3ccccc3)c2)C[C@@H]2CC[C@H]1N2C(=O)NCCCc1ccccc1	-16%	6%	3%
COc1ccccc1OCCNC(=O)CN1C(=O)NC2(CCCCC2)C1=O	-21%	-18%	1%
CCC1=Nc2cc(C(=O)NCC3CCCO3)ccc2Sc2ccc(Br)cc21 (stereo not given)	-5%	-7%	-10%
CC(C)(C)OC(=O)C[C@@H]1C/C=C\C[C@H](CC(=O)N(CCO)Cc2ccccc2)C(=O)N2CCC[C@@H]2COC1=O	51%[activator]	5%	0%
CCN(CC)S(=O)(=O)c1cc(NC(=O)COC(=O)C2CCC2)ccc1C	-6%	4%	-4%

Complete entries, looked up by structure. Order of values: 2A StopGo	RE007 growth inh	SARS PLpro yeast
CCN(CC)S(=O)(=O)c1cc(NC(=O)COC(=O)C2CCC2)ccc1C is listed with -6%	4%	-4%
COc1ccccc1OCCNC(=O)CN1C(=O)NC2(CCCCC2)C1=O is listed with -21%	-18%	1%
CNC(=O)CC(CC(=O)c1ccccc1)c1ccccc1 (stereo not given) is listed with 3%	2%	2%
COC(=O)C1=C(c2cccc(OCc3ccccc3)c2)C[C@@H]2CC[C@H]1N2C(=O)NCCCc1ccccc1 is listed with -16%	6%	3%
CC(C)(C)OC(=O)C[C@@H]1C/C=C\C[C@H](CC(=O)N(CCO)Cc2ccccc2)C(=O)N2CCC[C@@H]2COC1=O is listed with 51%[activator]	5%	0%

(continued)
SMILES	2A StopGo	RE007 growth inh	SARS PLpro yeast
Cc1ccc(S(=O)(=O)Nc2ccc3c(c2)C(=O)N([C@H](C)CO)C[C@H](C)[C@@H](CN(C)C(=O)Nc2ccc4c(c2)OCO4)O3)cc1	3%	23%	1%
CN(Cc1ccco1)C(=O)CSc1nn2c(=O)c(C(C)(C)C)nnc2s1	-25%	2%	-1%
O=C(/C=C/c1cccc(Br)c1)OCC(=O)N1CCN(c2ccccc2)CC1	-23%	-23%	-6%
CC[C@H](CO)Oc1cc(NCc2ccc(Cl)c(Cl)c2)c2ncn(C(C)C)c2c1	-29%	11%	1%
COc1ccc([C@H]2CC(=O)C=C(c3ccc4c(c3)OCCO4)C2)cc1	42%[activator]	22%	0%
CC(C)C(NC(=O)c1ccc(C(C)(C)C)cc1)C(=O)NCc1ccccn1 (stereo not given)	-23%	5%	6%
Cc1nn(Cc2ccccc2)c(C)c1C(=O)N1CCN(CC(=O)Nc2ccccc2Cl)CC1	?	-13%	-7%
OCC[C@H]1C[C@H](O)[C@@H](O)[C@]2(Cc3ccccc3CO2)O1	-8%	-1%	0%
O=C(Cn1cccc1C(=O)c1ccccc1)NCCCN1CCc2ccccc2C1	-4%	-7%	-3%
NNC(=O)CCN1CCCCC1	-5%	-10%	1%

Part of the list above, reformatted:
canonical_smiles,2A StopGo,RE007 growth inh,SARS PLpro yeast
Cc1nn(Cc2ccccc2)c(C)c1C(=O)N1CCN(CC(=O)Nc2ccccc2Cl)CC1,?,-13%,-7%
OCC[C@H]1C[C@H](O)[C@@H](O)[C@]2(Cc3ccccc3CO2)O1,-8%,-1%,0%
O=C(Cn1cccc1C(=O)c1ccccc1)NCCCN1CCc2ccccc2C1,-4%,-7%,-3%
NNC(=O)CCN1CCCCC1,-5%,-10%,1%

(listing goes on)
SMILES	2A StopGo	RE007 growth inh	SARS PLpro yeast
CC(c1nc2ccccc2c(=O)[nH]1)N1CCCN(S(=O)(=O)c2ccc(F)cc2)CC1 (stereo not given)	?	11%	2%
O=C(CCN1C(=O)C2CC=CCC2C1=O)Nc1cccc(S(=O)(=O)N2CCCCC2)c1 (stereo not given)	-17%	14%	-9%
COc1cc(OC)cc(C(=O)NCC(=O)N2CCN(S(=O)(=O)c3ccccc3F)CC2)c1	-4%	8%	-3%
Cc1nnc2n1N=C(c1ccc(F)cc1F)CS2	-2%	-10%	0%
COc1ccc([C@H]2CC(=O)C=C(c3ccccc3)C2)cc1OC	-22%	16%	4%
COc1ccccc1N1CCN(C(=O)c2ccc(Br)o2)CC1	-18%	-4%	-3%
O=C(Cn1cnc2c(OCc3ccccc3)ncnc21)NCC1CCCO1 (stereo not given)	-8%	2%	0%
O=C(COC(=O)c1ccncc1)Nc1cc(S(=O)(=O)N2CCOCC2)ccc1Cl	-6%	4%	1%
Cc1cc(C)c(NC(=O)CNC(=O)Cc2ccc(S(=O)(=O)N3CCOCC3)s2)c(C)c1	-5%	-20%	-5%
Cc1ccc(NC(=O)COC(=O)c2cccc(C)c2[N+](=O)[O-])cc1S(=O)(=O)N1CCCCC1	?	2%	-1%
COc1ccc(-n2c3c(c(=O)[nH]c2=O)C(NC(=O)c2ccncc2)(C(F)(F)F)C(=O)N3)cc1 (stereo not given)	-17%	16%	6%
CCN(CC(=O)NCc1cccs1)C(=O)COc1ccc(C(N)=O)cc1	0%	14%	-2%[6.58 µM]
O=C(NNC(=O)C1CCN(S(=O)(=O)c2ccc(Cl)cc2)CC1)c1ccccc1O	?	6%	15%
CCCC(=O)Nc1cc(C(=O)O)ccc1Sc1ccc(C)cc1	-17%	-4%	-2%
CCN1C(=O)[C@H]2[C@@H](c3ccc(C)cc3)N3C(=O)N(c4cccc(Cl)c4)C(=O)[C@@]3(CC(C)C)[C@H]2C1=O	-11%	0%	-4%
COc1ccc(N2CCN(C(CNC(=O)C(=O)NCCCn3ccnc3)c3cccnc3)CC2)cc1 (stereo not given)	3%	-1%	0%
COC(=O)CSc1nc2ccc(C)cc2cc1C#N	72%[activator]	-20%	1%
COc1ccc(-c2sc3ccccc3c2/C=C/c2ccc(OC)c(OC)c2)cc1	1%	0%	8%
O=C(NCCc1ccc2c(c1)OCCO2)c1cccc(S(=O)(=O)N2CCCC2)c1	8%	-6%	6%
O=C(OCC(=O)N1CCCC1=O)C1CCN(S(=O)(=O)c2ccc(Cl)c(C(F)(F)F)c2)CC1	-7%	2%	2%

Retrieved by compound from the entries so far (2):
SMILES	2A StopGo	RE007 growth inh	SARS PLpro yeast
CCN(CC(=O)NCc1cccs1)C(=O)COc1ccc(C(N)=O)cc1	0%	14%	-2%[6.58 µM]
O=C(NCCc1ccc2c(c1)OCCO2)c1cccc(S(=O)(=O)N2CCCC2)c1	8%	-6%	6%

Continued:
SMILES	2A StopGo	RE007 growth inh	SARS PLpro yeast
CC(C)CN(C(=O)Cn1ccccc1=O)C1CCS(=O)(=O)C1 (stereo not given)	-17%	-5%	-3%
CC(C)=CCC/C(C)=C/CNC(=O)C[C@H]1C[C@H](C(=O)N2CCCCC2)[C@@]2(C)c3[nH]c4ccc(Cl)cc4c3CCN2C1=O	-16%	-7%	-3%
N=C1S/C(=C\c2ccco2)C(=O)N1c1nccs1	-2%	-10%	-10%
Cc1ccc(S(=O)(=O)N2CCCCC2)cc1NC(=O)C1=NN(c2ccccc2)C(=O)CC1	?	-8%	-2%
CCCCCCCNC(=O)C1(CC2CC(c3ccccc3)=NO2)CCN(C(=O)c2ccccc2)CC1 (stereo not given)	-10%	16%	1%
O=C(OCC(=O)N1CCN(S(=O)(=O)c2ccc(Cl)cc2)CC1)C1CC1	-9%	19%	1%
Cc1ccc(C)c(NC(=O)CN(C)C(=O)CN2C(=O)NC3(CCc4ccccc43)C2=O)c1 (stereo not given)	-18%	-13%	-5%
CC(=O)c1ccc(S(=O)(=O)Nc2ccc(-c3ccc4nnc(C)n4n3)cc2)cc1	44%	6%	-4%
COc1cc2c(cc1CNC[C@H]1O[C@@H](n3cnc4c(N)ncnc43)[C@H](O)[C@@H]1O)OCO2	0%	-6%	10%
C#CCOCCOCCOCCNc1nc(N2CCN(C(=O)[C@H](CC(N)=O)n3cc(C(N)[C@@H](C)CC)nn3)CC2)nc(N2CCN(C(=O)[C@H](CCC(=O)O)n3cc([C@@H](N)CCCCN)nn3)CC2)n1 (stereo not given in full)	-12%	3%	-7%
COc1ccc2c(c1)C(=O)N1[C@H]3c4cc(Cl)ccc4OC[C@@H]3[C@H](c3ccccc3)[C@]1(C)C(=O)N2	-22%	15%	5%
CCN1C(=O)[C@H]2[C@@H](c3ccc(-c4ccc(OC)cc4)c(OC)c3)N[C@@](Cc3ccccc3)(C(=O)OC)[C@H]2C1=O	17%	8%	12%
COC(=O)[C@]1(C)N[C@H](CN(C)S(=O)(=O)c2ccc(F)cc2)[C@@H]2C(=O)N(C)C(=O)[C@@H]21	-22%	1%	1%
CC1CCCC(NC(=O)c2cc(S(=O)(=O)N3CCCCC3)ccc2Cl)C1C (stereo not given)	-29%	-14%	10%
COc1cc(C(=O)NCC2CCCO2)ccc1OCc1ccc(Cl)cc1 (stereo not given)	4%	-18%	-1%
COC(=O)C1=C(c2ccc(F)cc2F)C[C@@H]2CC[C@H]1N2C(=O)N1CCC(O)(c2ccc(Cl)cc2)CC1	?	13%	1%
O=C(COC(=O)C1=COCCO1)Nc1ccc([N+](=O)[O-])cc1C(F)(F)F	-21%	0%	-5%
O=C(COC(=O)Cc1ccccc1[N+](=O)[O-])NNC(=O)c1ccc([N+](=O)[O-])cc1	-13%	-1%	-1%
CN(C)c1nc(N(C)C)nc(N2CC(=O)N(c3ccccc3)C2=N)n1	0%	7%	2%
Cc1ccc(S(=O)(=O)N2C[C@@H]3[C@H]4CC[C@H](C4)[C@@H]3[C@@H](C)[C@H]2c2ccn(Cc3ccccc3)c2)cc1	-24%	49%	4%
CCOC(=O)c1c(C)[nH]c(C(=O)NCC(c2ccco2)N2CCCCC2)c1C (stereo not given)	-6%	-3%	-3%
O=S(=O)(c1ccc2c(c1)CCCN2)N1CCCC1	-17%	7%	6%
Cc1cc(NC(=O)c2cccc(Cl)c2)n[nH]1	73%[activator]	3%	-4%
CSCCC(NC(=O)c1ccco1)C(=O)OCC(=O)N1c2ccccc2NC(=O)C1(C)C (stereo not given)	-5%	1%	0%
Fc1ccc2cnc(-c3ccccc3)c(-c3cccc(C(F)(F)F)c3)c2c1	-21%	4%	2%
COc1ccc(C(=O)Nc2ccccc2N2CCOCC2)cc1S(=O)(=O)N1CCOCC1	0%	2%	-2%
CN(CC(=O)Nc1ccc(N2CCOCC2)cc1)C(=O)c1cc2c(s1)CCCC2	-21%	-4%	-4%
COc1ccc(NC(=O)N(C)C[C@H]2Oc3ccc(NS(=O)(=O)c4cccs4)cc3C(=O)N([C@@H](C)CO)C[C@@H]2C)cc1	-12%	3%	2%

Rewritten with two lines to a compound: part of the list above.
Every second line gives: 2A StopGo | RE007 growth inh | SARS PLpro yeast
CN(CC(=O)Nc1ccc(N2CCOCC2)cc1)C(=O)c1cc2c(s1)CCCC2
→ -21% | -4% | -4%
Fc1ccc2cnc(-c3ccccc3)c(-c3cccc(C(F)(F)F)c3)c2c1
→ -21% | 4% | 2%
COc1ccc(NC(=O)N(C)C[C@H]2Oc3ccc(NS(=O)(=O)c4cccs4)cc3C(=O)N([C@@H](C)CO)C[C@@H]2C)cc1
→ -12% | 3% | 2%

Compound activity (PubChem BioAssay)

Not all compounds are listed; the hit share may differ from the screen's.
